WNV protease inh – WNV NS2B-NS3 proteinase inhibition | P06935 | AID 577 | z-score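 (tested at a level between 10 and 100 µM)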 | actives 0.18% (n = 65,000) | WNV NS2B-NS3 protease, fluorogenic substrate Ex360/Em465; active compounds read low;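 active = z-score at -3 or under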;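 note: score is relative to mean and spread of the compound wells of a plate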
Target sequence (P06935 1371-1501 limits assumed): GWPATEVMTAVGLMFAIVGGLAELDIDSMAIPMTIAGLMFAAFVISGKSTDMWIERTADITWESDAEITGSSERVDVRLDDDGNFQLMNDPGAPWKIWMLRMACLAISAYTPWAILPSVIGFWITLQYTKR
Target sequence (P06935 1502-1679 limits assumed): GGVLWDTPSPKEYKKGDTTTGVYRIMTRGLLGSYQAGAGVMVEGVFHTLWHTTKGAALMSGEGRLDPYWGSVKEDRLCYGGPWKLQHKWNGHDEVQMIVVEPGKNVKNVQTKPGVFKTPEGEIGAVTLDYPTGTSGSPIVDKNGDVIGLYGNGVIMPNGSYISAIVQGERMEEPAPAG
Hsc70 ATP site – Hsc70 inhibitors, probe displacement, primary screen, biochemical, fluorescence polarization (AID 568). displacement, % at 20 µM; hits with a dose series show IC50 in µM. 83,000 tested, under 10 active. Hsc70 fluorescence polarization, probe displacement; higher % means a stronger effect; strong numbers were not always called active;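 active = displacement above 50% without optical interference and an IC50 on retest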;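 note: ATPase domain with a fluorescein-tagged ATP probe; 0% = vehicle and 100% = excess ADP; read after one hour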
MT1-MMP promoter – inhibitors of MT1-MMP promoter transcription, cell-based, luciferase reporter, luminescence (AID 618); MT1-MMP promoter luciferase reporter cells, luminescence; calls from a first round at 10 µM; hits with a dose series show EC50 in µM; actives 0.62% (n = 87,000);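 active = over half of the reporter light lost at 10 µM or EC50 under 50 µM; inactive = the rest and hits that failed the dose series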;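 note: actives suppress MT1-MMP promoter-driven transcription so potencies describe inhibitors; HT1080 fibrosarcoma cells; overnight exposure; toxic or luciferase-blocking compounds were not removed from the actives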
Numbers without * were called inactive; i = inactive; / = not tested or not shown.

smiles	WNV protease inh	Hsc70 ATP site	MT1-MMP promoter
Cc1nc2c([nH]c3ccc(Br)cc32)s1	-0.16	0.1%	i
COC(=O)COc1cccc(NC(=O)COc2ccccc2)c1	-0.39	3.6%	i
Cc1cccc(N2CCN(C(=O)c3cccc(N4C(=O)C5CC=CC(C)C5C4=O)c3)CC2)c1C (stereo unspecified)	/	-1.8%	i
O=C(Nn1c(O)c(C=C2N=c3ccccc3=N2)sc1=S)c1ccccc1	/	1.2%	i
CC1CCN(c2oc(-c3cccc4ccccc34)nc2C#N)CC1	0.35	4.2%	i
CN(C)c1ccc(-c2nnn(Cc3ccccc3Br)n2)cc1	1.5	2.0%	i
Cc1ccc2c(c1)NC(=O)C(CC(=O)NCCCN1CCCCC1)O2 (stereo unspecified)	0.03	2.4%	i
O=C(O)C1C2C=CC(C2)C1C(=O)N1CCN(CCO)CC1 (stereo unspecified)	0.43	3.3%	i
COC(=O)c1ccccc1NC(=O)C1CC(=O)N(c2ccc(C)cc2)C1 (stereo unspecified)	/	2.3%	i
O=C(Cn1c(=O)n(Cc2ccco2)c(=O)c2c3c(sc21)CCCC3)Nc1ccccc1	-0.11	-10%	i
CC(NC(=O)Cc1cccs1)c1ccncc1 (stereo unspecified)	-0.95	-4.1%	i
CCC(C)N=CC1=C(O)CC(c2ccccc2)CC1=O (stereo unspecified)	/	-13%	i
COc1cc(S(=O)(=O)N2CCN=C2c2ccccc2)ccc1F	0.04	-2.9%	i
COC(=O)CSc1nc(N2CCOCC2)c2c(c1C#N)CC(C)(C)N(C)C2	-0.31	2.1%	i
CCCCc1cc(=O)oc2cc(C)cc(OCC(=O)O)c12	-1.1	-5.4%	i
COc1ccc(C2C(=O)c3ccccc3C2=O)c(OC)c1	2	5.0%	i
CC(C)C(NC(=O)c1cccs1)C(=O)NC1=NCCS1 (stereo unspecified)	-0.58	-5.0%	i
O=C(Nc1nc2ccccc2s1)C1CCCO1 (stereo unspecified)	2.8	1.6%	i
Cc1ccc(-n2c(=O)cc(N3CCc4ccccc4C3)[nH]c2=O)cc1	0.93	-1.7%	i
Cc1csc(NC(=O)CSc2nnc(-c3cccs3)n2C)n1	0.23	-1.9%	i

New compounds follow
smiles	WNV protease inh	Hsc70 ATP site	MT1-MMP promoter
COC(=O)c1c(C)[nH]c(C(=O)CSc2ccc(Cl)cc2)c1C	/	-4.0%	i
Cc1ccc(OCC(O)CN2CCN(CC(O)COc3ccc(C)cc3Cl)CC2)c(Cl)c1 (stereo unspecified)	-0.32	5.8%	i
Cc1ccccc1-n1nc(C)c2cc(C(=O)NC3CC3)sc21	/	-1.3%	i
COc1ccc(CN2C(=O)CN(C3CCCCCC3)C(=O)C2c2ccc(OC)c(OC)c2)cc1 (stereo unspecified)	0.27	-1.9%	i
Cc1csc(NC(=O)c2c(O)c3c(n(CC(C)C)c2=O)CCCC3)n1	0.97	-6.6%	i
Cc1cccc(-c2csc(N)c2C(=O)OC(C)C)c1	/	1.7%	i
Cc1ccccc1-n1nc2c(c1NC(=O)c1cc3ccccc3oc1=O)CS(=O)C2 (stereo unspecified)	-0.68	1.5%	i
O=C(CCCN1C(=O)c2ccccc2C1=O)NCc1ccco1	/	2.6%	i
O=S(=O)(NCC1CCCO1)c1cc(Br)c(Br)s1 (stereo unspecified)	-0.04	0.6%	i
Cc1nc(Nc2ccc(F)cc2)[nH]c(=O)c1CCC(C)C	-1.1	-4.3%	i
COc1cc2c(cc1OC)C(C(C)C)=NC(C)(C)C2	/	3.3%	i
CCCCN(Cc1ccccc1)C(=O)C1CCCN(S(=O)(=O)c2cnc[nH]2)C1 (stereo unspecified)	-0.28	0.1%	i
COCCCNc1oc(COc2ccc(Cl)cc2Cl)nc1C#N	-0.67	-5.3%	i
CCOc1ccc(N2C(=O)CN=C2Nc2ccccc2Cl)cc1	/	1.6%	i
Cn1c(=O)[nH]c(=O)c2c1nc(N1CCOCC1)n2CC(O)COc1ccccc1 (stereo unspecified)	-0.41	-5.9%	i
CC1CCN(C(=O)c2cc3ccccc3o2)CC1	-0.51	5.1%	i
CCn1c(C)nc2cc(S(=O)(=O)C(F)(F)C(F)C(F)(F)F)ccc21 (stereo unspecified)	-0.05	1.3%	i
COc1ccc(-c2cc3nc[nH]c(=O)c3s2)cc1	/	5.4%	i
O=C(CCSc1nc2cc(Cl)ccc2o1)N1CCOCC1	1.8	-1.0%	i
CSc1nc(-c2ccccc2)nn1S(=O)(=O)c1ccccc1	/	-5.7%	i

(more compounds)
smiles	WNV protease inh	Hsc70 ATP site	MT1-MMP promoter
NC(=O)C1CCCN(C(=O)Nc2cccc3ccccc23)C1 (stereo unspecified)	0.87	-11%	i
N#CC1=C(N)OC2=C(C(=O)CCC2)[C@]12C(=O)N(CC(N)=O)c1ccccc12	-0.03	-3.5%	i
COCCCN1C(=O)c2ccc(C(=O)Nc3ccccc3OC)cc2C1=O	/	-0.7%	i
CCOC(=O)c1sc2nccc(N(C)C)c2c1N=CNOC	/	-2.2%	i
Cc1nc2nc(-c3ccccc3)cn2nc1C	2.9	-2.1%	i
O=C(CSc1ncn(-c2ccccc2)n1)Nc1ccc2c(c1)OCO2	-0.39	3.9%	i
CC(Oc1ccccc1)C(=O)Nc1ccccc1O (stereo unspecified)	/	-5.7%	i
O=C1CC(NCc2ccccc2F)C(=O)N1c1ccccc1 (stereo unspecified)	-0.76	4.1%	i
COc1cccc(NC(=O)CSc2nnc(-c3ccoc3C)n2CC2CCCO2)c1 (stereo unspecified)	/	3.7%	i
COc1ccc(CCn2c3c(c(=O)[nH]c2=O)C(NC(=O)c2cccs2)(C(F)(F)F)C(=O)N3)cc1OC (stereo unspecified)	/	-2.2%	i
O=C(Nc1ccc2c(c1)OCO2)C1CCCN1C(=O)NCc1ccccc1 (stereo unspecified)	-0.39	-1.7%	i
N#CCCN(Cc1cccnc1)S(=O)(=O)c1ccc(S(=O)(=O)N2CCCCCC2)cc1	0.58	4.1%	i
O=C(CC(NCCN1CCOCC1)C(=O)O)Nc1cccc(Cl)c1 (stereo unspecified)	-0.74	-1.5%	i
Cn1c(=O)c(=O)n(C)c2cc(S(=O)(=O)CCC(=O)N3CCOCC3)ccc21	0.47	-1.8%	i
Nc1cccc(C(=O)O)c1	0.5	-5.7%	i
Cc1ccc(NCc2nnc(SCC(=O)Nc3ncc(C)s3)n2CC2CCCO2)c(C)c1 (stereo unspecified)	-0.1	2.0%	i
COc1ccccc1NS(=O)(=O)c1ccc(NC(=O)c2nc3ncccn3n2)cc1	0.79	2.7%	i
COc1cc(S(=O)(=O)NC2CCCCC2)ccc1F	/	7.3%	i
Cn1c(Cc2ccccc2)nnc1SCC(=O)c1cccs1	/	8.4%	i
CCc1ccc(CCC(=O)Nc2ccc(OC)cc2)o1	/	-3.6%	i

The list continues.
smiles	WNV protease inh	Hsc70 ATP site	MT1-MMP promoter
CC12CCC(C(=O)N(CCC#N)CCC#N)(CC1=O)C2(C)C (stereo unspecified)	0.1	-2.1%	i
Cc1cccc(N(CC(=O)NC2CCCCC2)C(=O)CCCC(=O)Nc2ccccn2)c1	/	0.3%	i
COC(=O)c1ccc(CSc2ncnc3c2nnn3-c2ccc(OC)cc2)o1	0.66	-3.3%	i
COc1ccc(CCN2CC(O)=C(c3nc(C)cs3)C2=N)cc1OC	/	-1.3%	i
CN(CCc1ccccn1)C(=O)Nc1ccc(F)cc1	0.66	4.8%	i
Cc1cccc(CN2CCN(CC(=O)NCc3ccc(F)cc3)C2=O)c1	-0.98	1.5%	i
COc1ccccc1NC(=O)CN1C(=O)NC(C)(C)C1=O	-0.52	-6.2%	i
CN1CCN(c2nc3c(c(=O)n(C)c(=O)n3C)n2CC(N)=O)CC1	1.6	-0.7%	i
CCOc1ccc(-c2nnc3ccc(SCC(=O)N4CCCCC4)nn23)cc1	-0.71	5.1%	i
Brc1ccc(-c2nnc(-c3ccccc3)o2)o1	/	3.0%	i
O=C(OC1CCOC1=O)c1ccc2ncsc2c1 (stereo unspecified)	-0.4	3.9%	i
CC(C)CNC(=O)C1CCCN1S(=O)(=O)c1ccc(Cl)cc1 (stereo unspecified)	/	-0.1%	i
Cc1ccc(N2C(=O)c3ccc(C(=O)N4CCN(c5cccc(C)c5C)CC4)cc3C2=O)cc1	/	-1.7%	i
COCCNC(=O)C1(C)Oc2ccccc2NC1=O (stereo unspecified)	/	-0.4%	i
COc1cc(C(=O)OC(C)CN2CCN(C)CC2)cc(OC)c1OC (stereo unspecified)	-0.17	5.9%	i
O=S(=O)(Cc1ccc(Cl)cc1)CC(O)COCc1ccccc1 (stereo unspecified)	/	3.3%	i
O=C1NC(c2cccs2)Nc2sc3c(c21)CCCC3 (stereo unspecified)	0.85	3.7%	i
CCOC(=O)c1c(NC(=O)c2cc(C(C)C)on2)sc(C(C)=O)c1C	/	0.1%	i
Cc1nc2ncnn2c(N2CCC(C(=O)NCC3CCCO3)CC2)c1Cc1ccccc1 (stereo unspecified)	-0.59	-1.7%	i
CCCCN(C(=O)CCC(=O)O)C1CC(=O)N(c2ccc(OCCC)cc2)C1=O (stereo unspecified)	-0.13	-0.8%	i

Carrying on:
smiles	WNV protease inh	Hsc70 ATP site	MT1-MMP promoter
COc1cccc2cc(-c3csc(CCn4nc(C)cc4C)n3)c(=O)oc12	-4.6*	-5.3%	i
O=C(CN(Cc1ccccc1)C(=O)CSc1nnc(COc2ccccc2)o1)NC1CCCC1	/	-1.5%	i
O=C1c2cccnc2C(O)N1Cc1ccc(F)cc1 (stereo unspecified)	-0.59	-7.7%	i
CCN(CCNC(=O)C1CCCN(S(=O)(=O)CC)C1)c1ccccc1 (stereo unspecified)	0.27	2.8%	i
CCOC(=O)C(CC)Sc1nc(N)c(NC(=O)c2ccc(OC)c(OC)c2)c(=O)[nH]1 (stereo unspecified)	-0.33	-2.2%	i
Cc1cc(NC(=O)CSc2nnc(-c3ccoc3C)n2N)no1	0.8	-0.6%	i
Fc1ccccc1CSc1nnc(-c2ccccc2)o1	0.95	-7.8%	i
O=C(C1=C(O)C(=O)N(Cc2ccccc2)C1c1cccnc1)c1ccco1 (stereo unspecified)	1.1	1.3%	i
c1ccc2[nH]c(CSc3nc4ccccc4s3)nc2c1	/	-0.2%	i
O=c1c2c(nc3nc[nH]n13)CCC2	/	1.6%	i
CCCOc1cccc(C(=O)N(Cc2ccc(OC)c(OC)c2)C2CCS(=O)(=O)C2)c1 (stereo unspecified)	/	1.2%	i
COc1c(F)c(F)c(C(=O)Nc2ccccc2N2CCN(C(=O)C(C)C)CC2)c(F)c1F	-0.81	7.1%	i
COc1cccc(C(=O)Nc2ncc3c(n2)CC(C)CC3=O)c1 (stereo unspecified)	-0.13	4.7%	i
CCC1(CC)C(=O)NC(=O)NC1=NCCc1c[nH]c2ccccc12	-0.0066	2.5%	i
O=c1[nH]cnc2cc(-c3ccccc3)sc12	-0.21	-0.5%	i
CCC(=O)NC(C)C(c1cccs1)N1CCN(c2ccccc2)CC1 (stereo unspecified)	-0.11	-0.7%	i
COc1ccc(/C(O)=C2/C(=O)C(=O)N(CCCC(=O)O)C2c2ccc(OC)cc2)cc1 (stereo unspecified)	-0.15	4.1%	i
Nc1nc(Nc2ccc(Cl)cc2)nc2ccccc12	/	-2.8%	2.1µM*
Cc1cc(NC(=O)CSc2nnc(C3COc4ccccc4O3)o2)no1 (stereo unspecified)	-0.71	-5.5%	i
CC1CCCN(C(=O)c2ccncc2)C1 (stereo unspecified)	-0.4	1.0%	i

Other records.
smiles	WNV protease inh	Hsc70 ATP site	MT1-MMP promoter
CN=CC1=C(O)c2ccccc2C1=O	0.34	4.5%	i
COC(=O)c1c(NC(=O)CSc2nnc(-c3ccco3)n2C)sc(C)c1C	/	-0.6%	i
CC1N(O)C(c2ccc(Cl)cc2Cl)N(O)C1(C)C (stereo unspecified)	0.92	0.8%	i
CCC(=O)N(Cc1cc2cc(OC)ccc2[nH]c1=O)c1cccc(C)c1	-0.18	-7.7%	i
O=C(NC(=O)c1cccc(OC(F)(F)C(F)F)c1)OC1CCS(=O)(=O)C1 (stereo unspecified)	-0.29	3.3%	i
O=C(C(Cc1ccc(Cl)cc1)NS(=O)(=O)c1ccccc1)N1CC[C@@]2(O)CCCC[C@H]2C1 (stereo partly specified)	/	-4.5%	i
Cc1cc(C)c(C)c(OCC(=O)NCC2CCCO2)c1 (stereo unspecified)	-1.2	-0.3%	i
COC(=O)[C@H](CCSC)NC(=O)NCCC1=CCCCC1	-0.32	0.0%	i

Structural class, the entries above containing a CF3 group
smiles	WNV protease inh	Hsc70 ATP site	MT1-MMP promoter
CCn1c(C)nc2cc(S(=O)(=O)C(F)(F)C(F)C(F)(F)F)ccc21 (stereo unspecified)	-0.05	1.3%	i
COc1ccc(CCn2c3c(c(=O)[nH]c2=O)C(NC(=O)c2cccs2)(C(F)(F)F)C(=O)N3)cc1OC (stereo unspecified)	/	-2.2%	i

An excerpt; count on the stated rates, not on these rows.
